From PubChem
2A StopGo = High Throughput Screening for Foot and Mouth Disease Virus Antivirals; human cells with a luciferase reporter of 2A StopGo recoding; control for the full effect not named in the record; Potency, µM (highest dose often 57.9 µM), inactives show at the top dose signal change, negative = less light; actives 1.2% (n = 410,000); active = well fitted falling curve with a large enough effect; inconclusive = small, poorly fitted or top-dose-only effect; inactive = no such curve, though single readings can be large or run the other way; tested in HEK293T cells; further: nearly all actives have a fitted effect of over 45% in size; luciferase light after 4 h
* hit, by the source's call; ? = inconclusive; [ ] = another dose, or the depositor's remark. On the % scale 0 is the no-effect control and ±100 the full control effect; potency means the concentration at half of the fitted maximal effect.

SMILES	2A StopGo
COCC1CCCN(Cc2ccc3c(c2)CN(C(=O)c2cc(-c4ccccc4)n[nH]2)CCO3)C1 (stereo not drawn)	-20%
CN(C)CC(C)(O)c1ccc2c(c1)CN(Cc1cccn1-c1ncccn1)CCO2 (stereo not drawn)	-10%
COc1cc(Cl)c(CN2CCOc3ccc(CN4CCCCC4CO)cc3C2)cc1OC (stereo not drawn)	-4%
Cc1c(C(=O)N2CCCC(C)C2)sc2ncnc(NCCN3CCCCC3)c12 (stereo not drawn)	1%
CC(C)c1onc(-c2c(Cl)cccc2Cl)c1COc1ccc(/C=C/c2cccc(C(=O)O)c2)c(Cl)c1	-18%
COc1ccc(CCNc2ncnc3sc(C(=O)N4CCCC4)c(C)c23)cc1OC	-7%
Cc1nc2cc(NC(=O)[C@@H]3C[C@@H](Sc4ccccn4)CN3Cc3ccccc3C)ccc2s1	-2%
CCC1C(=O)NCCN1Cc1ccc2c(c1)CN(Cc1ccc(OC)c(OC)c1)CCO2 (stereo not drawn)	-17%
Cc1cnc(-n2ncc(C(=O)N(C)CC3COCCO3)c2C2CC2)nc1-c1cccs1 (stereo not drawn)	49%[activator]
CCOC(=O)C1CCCCN1Cc1nc(N2CCN(C(C)=O)CC2)c2ccccc2n1 (stereo not drawn)	5%
O=C(c1cnn(-c2nccc(-c3ccccc3F)n2)c1C1CC1)N1CCCCC1c1cccnc1 (stereo not drawn)	-8%
CC(C)c1nc(C(=O)N2CCOc3ccc(CN4CCN(c5ccccn5)CC4)cc3C2)cs1	?
CN(CC1COCCO1)C(=O)c1cnn(-c2ncc3c(n2)-c2ccccc2CC3)c1C1CC1 (stereo not drawn)	35%[activator]
CC(=O)OCCN1C(=O)c2c(C)nc3ccc(S(=O)(=O)N4CCOCC4)cc3c2C1=O	-15%
COc1cc(=O)n2c(c1C(=O)NCc1ccco1)CCN(Cc1cccc(C(F)(F)F)c1)CC2	-8%
Cn1cc(CNC2CCN(c3cccc(NC(=O)c4cccnc4)c3)CC2)cn1	-8%
COc1ccc(C(=O)NCC2Cc3cccc(-c4cncnc4)c3O2)c(OC)c1OC (stereo not drawn)	?
COc1cccc(-c2ccnc(-n3ncc(C(=O)N(C)CCc4ccccn4)c3C)n2)c1	6%
COc1cccc(CN2C(=O)NC(C)(C3CCN(Cc4cccc(O)c4)CC3)C2=O)c1OC (stereo not drawn)	-13%
CC(C)Cc1nc2cc(NS(=O)(=O)N(C)C)cc(C(=O)N3CCOc4ccccc4C3)c2n1C	-6%
Cc1ccc(-c2ccnc(-n3ncc(C(=O)N(C)CC4CCCN(C)C4)c3C)n2)o1 (stereo not drawn)	0%
CN(C)c1nc2cc(Cl)ccc2cc1CN(Cc1ccc2c(c1)OCO2)C(=O)c1ccoc1	6%
CCC1CN(CC(=O)NC(C)c2c(C)nn(C)c2C)Cc2cc(OC)ccc2O1 (stereo not drawn)	3%
OC[C@H]1OC([S-])[C@H](O)[C@@H](O)[C@@H]1O.[Au+] (stereo partly drawn)	0%

The final three records of the section before come first, to join the parts:
SMILES	2A StopGo
CN(C)c1nc2cc(Cl)ccc2cc1CN(Cc1ccc2c(c1)OCO2)C(=O)c1ccoc1	6%
CCC1CN(CC(=O)NC(C)c2c(C)nn(C)c2C)Cc2cc(OC)ccc2O1 (stereo not drawn)	3%
OC[C@H]1OC([S-])[C@H](O)[C@@H](O)[C@@H]1O.[Au+] (stereo partly drawn)	0%
COc1ccc(O)c(C(=O)N2CCC3(CC2)c2ccccc2[C@@H](NC(=O)c2ccccn2)[C@@H]3OC)c1	21%
COC(=O)C1CCN(Cc2ccc3c(c2)CN(C(=O)c2cc(C)nc(C)n2)CCO3)CC1	5%
CC1(C)c2[nH]c3ccccc3c2C[C@H]2C(=O)N(Cc3ccccc3F)C(=O)N21	?
Cc1ncc2c(c1CNC(=O)c1cncs1)CCN(C(=O)c1cc(F)c(F)cc1F)C2	-4%
CS(=O)(=O)c1ccc(-c2cccc3c2OC(CNC(=O)c2cc(C4CC4)[nH]n2)C3)cc1 (stereo not drawn)	-13%
CC(C)(C)NC[C@H](O)COc1cccc2[nH]c(C#N)cc12	-22%
COCC(=O)Nc1cc(C(=O)N2CCN(c3ccc(Cl)cn3)CC2)c2c(c1)nc(C1CCC1)n2C	-11%
COC(=O)[C@@H]1CCCN1Cc1ccc2c(c1)CN(Cc1cccc(Cl)c1)CCO2	-4%
CO[C@H]1[C@H](NC(=O)c2ccco2)c2ccccc2C12CCN(Cc1ccc3cccc(F)c3n1)CC2	-19%
O=C(c1ccc(N2CCC(NCCCn3ncc4ccccc43)CC2)cc1)N1CCOCC1	-15%
CNc1ccc2oc(C[C@@H]3OC4(CC[C@@H]3C)O[C@H]([C@@H](C)C(=O)c3ccc[nH]3)[C@H](C)C[C@H]4C)nc2c1C(=O)O (stereo partly drawn)	?
O=C(c1cnn(-c2nccc(-c3ccco3)n2)c1C1CC1)N1CCCCC1c1cccnc1 (stereo not drawn)	-12%
Cc1ccc2nc(SCC(=O)N3CCOc4ccc(CN5C[C@@H](C)O[C@@H](C)C5)cc4C3)[nH]c2c1	-3%
Cc1cc(C)cc(CN2CCc3nnc(C(NS(C)(=O)=O)C(C)C)n3CC2)c1 (stereo not drawn)	2%
O=C(Nc1cccc(C(=O)Nc2cc(C(=O)Nc3ccc([S+](=O)([O-])[O-])c4cc([S+](=O)([O-])[O-])cc(SOOO)c34)ccc2F)c1)Nc1cccc(C(=O)Nc2cc(C(=O)Nc3ccc([S+](=O)([O-])[O-])c4cc([S+](=O)([O-])[O-])cc([S+](=O)([O-])[O-])c34)ccc2F)c1	-8%
CC(C)c1c(C(=O)N(C)Cc2cccc3ncccc23)cnn1-c1nccc(-c2ccccc2F)n1	13µM*
Cc1nc2cc(NC(=O)[C@@H]3C[C@@H](Sc4ccccn4)CN3Cc3cccc(Cl)c3)ccc2s1	5%
CN1CC(O)C2=CC(=O)C(=O)C=C21 (stereo not drawn)	-16%
O=C1CC[C@H](C(=O)O)N1	-16%
CSc1nnc(CCNC(=O)c2ccc(-c3cccc(F)c3)cc2)n1-c1ccc(F)cc1	0%
CC(=O)Nc1ccc(C(=O)N2CCCC(n3cc(C(=O)NCC(C)C)nn3)C2)cc1 (stereo not drawn)	3%
Nc1nc2c(ncn2[C@@H]2O[C@H](COP(=O)(O)OP(=O)(O)OP(=O)(O)O)[C@@H](O)C2O)c(=O)[nH]1 (stereo partly drawn)	-5%
COc1ccc2c(c1)CCc1cnc(-n3ncc(C(=O)NCc4cccnc4)c3C3CC3)nc1-2	?
CCn1c(-c2cccnc2)nc2cc(NC(=O)COC)cc(C(=O)N3CCOc4ccccc4C3)c21	2%

20 entries out of the list, arranged by length of the SMILES, high to low.
SMILES	2A StopGo
O=C(Nc1cccc(C(=O)Nc2cc(C(=O)Nc3ccc([S+](=O)([O-])[O-])c4cc([S+](=O)([O-])[O-])cc(SOOO)c34)ccc2F)c1)Nc1cccc(C(=O)Nc2cc(C(=O)Nc3ccc([S+](=O)([O-])[O-])c4cc([S+](=O)([O-])[O-])cc([S+](=O)([O-])[O-])c34)ccc2F)c1	-8%
CNc1ccc2oc(C[C@@H]3OC4(CC[C@@H]3C)O[C@H]([C@@H](C)C(=O)c3ccc[nH]3)[C@H](C)C[C@H]4C)nc2c1C(=O)O (stereo partly drawn)	?
Nc1nc2c(ncn2[C@@H]2O[C@H](COP(=O)(O)OP(=O)(O)OP(=O)(O)O)[C@@H](O)C2O)c(=O)[nH]1 (stereo partly drawn)	-5%
COc1ccc(O)c(C(=O)N2CCC3(CC2)c2ccccc2[C@@H](NC(=O)c2ccccn2)[C@@H]3OC)c1	21%
Cc1ccc2nc(SCC(=O)N3CCOc4ccc(CN5C[C@@H](C)O[C@@H](C)C5)cc4C3)[nH]c2c1	-3%
CO[C@H]1[C@H](NC(=O)c2ccco2)c2ccccc2C12CCN(Cc1ccc3cccc(F)c3n1)CC2	-19%
Cc1nc2cc(NC(=O)[C@@H]3C[C@@H](Sc4ccccn4)CN3Cc3cccc(Cl)c3)ccc2s1	5%
COCC(=O)Nc1cc(C(=O)N2CCN(c3ccc(Cl)cn3)CC2)c2c(c1)nc(C1CCC1)n2C	-11%
CS(=O)(=O)c1ccc(-c2cccc3c2OC(CNC(=O)c2cc(C4CC4)[nH]n2)C3)cc1 (stereo not drawn)	-13%
CC(C)c1c(C(=O)N(C)Cc2cccc3ncccc23)cnn1-c1nccc(-c2ccccc2F)n1	13µM*
COc1ccc2c(c1)CCc1cnc(-n3ncc(C(=O)NCc4cccnc4)c3C3CC3)nc1-2	?
COC(=O)C1CCN(Cc2ccc3c(c2)CN(C(=O)c2cc(C)nc(C)n2)CCO3)CC1	5%
CC1(C)c2[nH]c3ccccc3c2C[C@H]2C(=O)N(Cc3ccccc3F)C(=O)N21	?
O=C(c1cnn(-c2nccc(-c3ccco3)n2)c1C1CC1)N1CCCCC1c1cccnc1 (stereo not drawn)	-12%
Cc1ncc2c(c1CNC(=O)c1cncs1)CCN(C(=O)c1cc(F)c(F)cc1F)C2	-4%
COC(=O)[C@@H]1CCCN1Cc1ccc2c(c1)CN(Cc1cccc(Cl)c1)CCO2	-4%
Cc1cc(C)cc(CN2CCc3nnc(C(NS(C)(=O)=O)C(C)C)n3CC2)c1 (stereo not drawn)	2%
CC(C)(C)NC[C@H](O)COc1cccc2[nH]c(C#N)cc12	-22%
CN1CC(O)C2=CC(=O)C(=O)C=C21 (stereo not drawn)	-16%
O=C1CC[C@H](C(=O)O)N1	-16%

(continued)
SMILES	2A StopGo
Cc1c(N)nc([C@H](CC(N)=O)NC[C@H](N)C(N)=O)nc1C(=O)N[C@H](C(=O)N[C@H](C)[C@@H](O)[C@H](C)C(=O)N[C@H](C(=O)NCCc1nc(-c2nc(C(=O)NCCCCN=C(N)N)cs2)cs1)[C@@H](C)O)[C@@H](O[C@@H]1O[C@@H](CO)[C@@H](O)[C@H](O)[C@@H]1O[C@H]1O[C@H](CO)[C@@H](O)[C@H](OC(N)=O)[C@@H]1O)c1cnc[nH]1	-3%
O=C(NCCc1nnc2n1CCN(Cc1c(F)cccc1F)CC2)c1ccco1	-20%
O=C(NC1CCC(n2cc(C(=O)NC3CC3)nn2)CC1)C(=O)c1ccccc1 (stereo not drawn)	-11%
COc1ccccc1C(=O)N[C@@H]1c2ccccc2C2(CCN(Cc3c(O)cccc3OC)CC2)[C@H]1O	?
Cc1ccsc1C1Cc2c(C(=O)NCc3cccnc3)c(=O)cc(C)n2-c2ccccc2S1 (stereo not drawn)	-8%
COCc1c(C(=O)N2CCCCCC2)cnn1-c1nccc(-c2cccs2)n1	31%[activator]
COc1ccc(-n2c(CNC(=O)c3cccc(OC)c3OC)nnc2SC)cc1	-5%
Cn1c2ccccc2c2cc(C(=O)N3CCOc4ccc(C(C)(O)CCn5cccn5)cc4C3)ccc21 (stereo not drawn)	-10%
COc1ccccc1CCNCc1cc2cccc(C)c2nc1-c1cccs1	-2%
COc1cccc(-c2ccc(O)c(CNCc3cccc4ccccc34)c2)n1	-5%
CNCC(O)c1cc(F)c(OCc2ccccc2)c(OCc2ccccc2)c1F (stereo not drawn)	-1%
CC(Cc1cccc(C(F)(F)F)c1)NCCCc1ccccc1 (stereo not drawn)	20µM*
COC(=O)c1ccccc1C(=O)NCC1Cc2cc(-c3nc(C)cnc3C)ccc2O1 (stereo not drawn)	-3%
COc1ccc(/C=C/C(=O)CC(=O)/C=C/c2cccc(O)c2OC)cc1O	-3%
Cc1cccc2c(N3CCCC3)nc(CNS(=O)(=O)c3ccccc3Cl)nc12	-7%
Cc1ccc(C(=O)Nc2cccc(-c3nc(CNC(=O)c4ccccc4-n4cccn4)c(C)o3)c2)s1	4%
CC(C)C(=O)NC(C)c1nnc2n1CCN(Cc1cccc3ncccc13)CC2 (stereo not drawn)	-11%
COc1ccc(N2C(=O)[C@@H]3C[C@H]2CN3Cc2cccn2-c2ccc(Cl)cn2)c(C)c1	0%
COc1ccc(CN2CCCC(c3nc(-c4ccncc4)ncc3-c3ccccc3)C2)cc1OC (stereo not drawn)	6%
CC(=O)c1ccc(F)c(-c2cc(C)cc3c2OC(CNC(=O)Cc2c[nH]c4ccccc24)C3)c1 (stereo not drawn)	6%
Cn1cccc1-c1cccnc1	-9%
Cc1ccc(CNc2ncnc3ccc(-c4ccc(CO)o4)cc23)o1	0%
COc1ccc2ccccc2c1CN1CCc2nnc(CNC(=O)c3cccc(F)c3)n2CC1	-5%
Cc1ncc2c(c1CNC(=O)c1ccc3c(c1)OCO3)CCN(C(=O)c1cnsn1)C2	6%
Cc1ncc2c(c1CNC(=O)c1cncs1)CCN(C(=O)c1ccc(C(C)(C)C)cc1)C2	3%
Cc1ncc2c(c1CNS(=O)(=O)N(C)C)CCN(C(=O)/C=C/c1ccccc1F)C2	-4%
COc1cccc(-c2ccnc(-n3ncc(C(=O)NCC4(N5CCCCC5)CCCC4)c3C)n2)c1	-6%
CC(C)Oc1ccc(Cl)cc1Nc1nc(NCCO)nc(N2CCCC2)n1	0%
CC(=O)c1cccc(-c2csc3ncnc(Sc4nnnn4C)c23)c1	35µM*
Cc1c(C(=O)NCCCc2ccncc2)cnn1-c1nccc(-c2ccccc2F)n1	-20%
Cc1cccc2c(Nc3ccc4c(c3)OCO4)nc(CN3CCC(N4CCCCC4)CC3)nc12	-12%
COc1cc2nc(N3CCCC(O)C3)c(CNCc3ccccc3F)cc2c(OC)c1OC (stereo not drawn)	-9%
COc1ccc(O)c(CN2CCOc3c(cc(-c4cccc(OC)n4)cc3OC)C2)c1	-14%
COCc1c(C(=O)N2CC3CCC2C3)cnn1-c1nccc(-c2ccccc2OC)n1 (stereo not drawn)	31%[activator]
CCCS(=O)(=O)NCc1c(C)ncc2c1CCN(C(=O)c1c(F)ccc(F)c1F)C2	-8%

An excerpt. The share of hits here may be higher or lower than overall.
